# High-throughput results from PubChem.
# AID504770: growth inhibition of E. coli YBA685, primary screen, V. cholerae RctB inhibitors; E. coli YBA685 rctB-dependent plasmid, OD600 growth, 3 h; active compounds read low; z-score (test concentration not listed); hit rate 0.27% among 130,000; AID 504770, 2011;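 active = z-score under -2 on both plates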;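 note: wells of about 30 µL received 100 nL stock; score is relative to mean and SD of the test wells; the first replicate is given; strong numbers were not always called active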
# CapD inh: Bacillus anthracis CapD inhibitors, primary screen, biochemical, fluorescence intensity | CapD gamma-glutamyltranspeptidase (Bacillus anthracis Ames Ancestor) | purified CapD enzyme, fluorescence intensity read-out; active compounds read low; some hits fall short of the stated cut | z-score (no concentration beside the values) | hit rate 0.23% among 140,000 | AID 492967, 2010;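 active = z-score under -4 in either of two replicates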;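 note: stock transfer was 100 nL into about 40 µL; score is relative to mean and spread of the plate; one replicate is shown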
# * = called active by the depositor; i = inactive; · = no result given.
SMILES,AID504770,CapD inh
CCOC(=O)Nc1cc(Cl)ccc1Cl,-0.8,0.69
COc1ccc2c(c1)c(=O)oc1c(C)c(OCC(=O)O)ccc12,0.4,63
Cc1ccccc1Nc1nc(N)nc(CSc2nnc(Cc3ccccc3)o2)n1,1,·
COC(=O)C(NC(=O)c1ccccc1)(Nc1sc2c(c1C#N)CCC(C)C2)C(F)(F)F (stereo not given),·,-0.32
CCOC(=O)c1cc2c(ccn2C)n1CC(=O)NC(c1ccccc1)c1ccccc1,0.25,·
O=C(Nc1ccc(N2CCOCC2)c2nonc12)c1ccco1,1.4,-0.12
O=C(OCc1ccccc1F)C1CCCC1,0.5,0.3
Cc1noc(/C=C/N(C)C)c1S(=O)(=O)N1CCCC(C(=O)N2CCc3ccccc32)C1 (stereo not given),-0.15,-0.34
CC(C)(C)c1ccc(Oc2ncccc2C(=O)O)cc1,-0.3,0.52
Cc1ccnc(S(=O)(=O)Cc2ccc(Cl)cc2)n1,-0.9,-0.3
O=C(O)C1C2c3ccccc3C(c3ccccc32)C1C(=O)NCc1ccccc1 (stereo not given),·,-0.85
CC(C)C(=O)N1N=C(c2cccnc2)CC1(O)C(F)(F)F (stereo not given),-0.6,·
COCCN(Cc1cc2ccc(C)c(C)c2nc1Cl)C(=O)N1CCOCC1,-1.2,·
Cc1ccc2c(c1)C1CN(C)CCC1N2S(=O)(=O)c1ccccc1 (stereo not given),-0.5,-0.18
O=C(Cc1cc(F)cc(F)c1)Nc1ccc(F)cc1,-0.7,-0.28
COc1ccccc1CCOC(=O)NNC(=O)/C=C/c1ccc(F)cc1Cl,·,10
COc1ccc(/C(O)=C2\C(=N)N(c3ccc([N+](=O)[O-])cc3C)C3=C(C(=O)CCC3)C2c2ccc3c(c2)OCO3)cc1 (stereo not given),·,0.51
Cc1cc(CNC(=S)Nc2ccc(S(N)(=O)=O)cc2)nn1C,1.8,-0.16
O=C(NC(=S)Nc1ccc(Br)c(Cl)c1)c1ccccc1,·,-0.72
CC/C(=N\Nc1ccc([N+](=O)[O-])cc1)c1ccc(-c2ccccc2F)cc1,·,-0.41
CCOC(=O)c1c(C)n(C)c2ccc(OCC(O)CNC3CCCCC3)cc12 (stereo not given),-1,-0.78
Cc1ccc(CSc2nc(-c3ccccc3C)c3c(c2C#N)CCC3)cc1,·,-0.095
CC12NCCC1(C)c1ccccc1N2 (stereo not given),-0.5,-0.33
O=C(NC1CCN(Cc2ccccc2)CC1)C1CCC1,0.35,-0.085
O=C(OCC(=O)N1CCCC1=O)c1cccc(Oc2ccccc2)c1,-0.6,·
O=C1C2C3c4ccccc4C(c4ccccc43)C2C(=O)N1CCN1CCNCC1 (stereo not given),-0.75,·
CC[C@H]1OC(=O)[C@H](C)[C@@H](O[C@H]2C[C@@](C)(OC)[C@@H](O)[C@H](C)O2)[C@H](C)[C@@H](O[C@@H]2O[C@H](C)C[C@H](N(C)C)[C@H]2O)[C@](C)(O)C[C@@H](C)/C(=N\OCOCCOC)[C@H](C)[C@@H](O)[C@]1(C)O,1.1,0.12
CCOC(=O)N1CCN(C(=O)c2ccc3c(c2)ncn3C2CCCC2)CC1,0.2,15
O=C(c1ccc(-n2c(=S)[nH]c3ccccc3c2=O)cc1)N1CCN(Cc2ccc3c(c2)OCO3)CC1,·,-0.15
CCOC(=O)C1=C(C)NC2=C(C(=O)C(C(=O)OCC)C(c3ccccc3OC)C2)C1c1cccc([N+](=O)[O-])c1 (stereo not given),·,-0.07
Cc1cc(OC(=O)/C=C/c2ccc(F)cc2)cc(=O)o1,-0.6,·
Cc1ccc(NC(=O)CSc2nnc(C)c3ccccc23)cc1,·,-0.22
CN(C(=O)COC(=O)Cn1cnc2ccccc2c1=O)c1ccccc1,0.15,·
COc1cc(/C=C2\Cc3ccccc3C2=O)ccc1O,0.15,-1.3
c1cc2c(cc1Nc1nc(N3CCOCC3)nc(N3CCOCC3)n1)OCO2,·,-0.12
Cc1ccc(S(=O)(=O)N(CC(=O)Nc2cccnc2)c2cc(C)cc(C)c2)cc1,-1,0.54
O=[N+]([O-])c1ccc(NN=C2CCCCC2)c([N+](=O)[O-])c1,·,0.55
COc1cc(CN2CCN(CCOC(=O)N3CCN(c4cc(C)ccc4C)CC3)CC2)cc2c1OCO2,·,-1
Cc1ccc(OCC(O)CNC(=O)c2ccccc2C(=O)O)cc1 (stereo not given),1.9,0.045
CCOC(=O)c1ncoc1-c1cccc(C(F)(F)F)c1,·,-0.74
CC(C)CCNC(=O)c1nn(-c2ccccc2)c(=O)c2ccccc12,-0.4,·
COc1ccc(OC)c(C2C3=C(CCCC3=O)N(c3ccccc3)C(=N)/C2=C(/O)c2ccccc2)c1 (stereo not given),·,-0.17
O=C(Cn1ncc(N2CCOCC2)c(Cl)c1=O)c1ccc(Cl)cc1,·,-1.2
Cc1cc(C)nc(SCC(=O)Nc2ncc3c(n2)CCCC3=O)n1,-0.1,·
O=C(NC1CCCCC1)N1CCc2ccccc2C1,-0.75,·
CCOC(=O)c1sc(NC(=O)COc2ccc(Cl)cc2)nc1C,1.7,i
CC(=O)N1CCc2cc([N+](=O)[O-])ccc21,·,-2.6
c1ccc(CSc2ncccn2)cc1,1.1,-0.62
CC(C(=O)O)n1nc(-c2ccccc2)c2ccccc21 (stereo not given),-0.25,8.8
CC(SC1=NS(=O)(=O)c2ccccc21)C(=O)O (stereo not given),0.4,·
CC(C)CN(CC(C)C)C(=O)Cn1nc(C(=O)O)c2ccccc2c1=O,-0.15,·
CCN(CC)c1ccc(C(=O)NN=C2C3CC4CC(C3)CC2C4)cc1,0.7,·
c1ccc(CCCN2CCN(Cc3ccccc3)CC2)cc1,0.15,0.13
O=C(Oc1ccccc1)c1ccco1,-0.35,-0.055
CCOC(=O)C1CCN(C(=O)c2ccccc2SCCOC)CC1,2,-0.14
COc1cccc(NC(=S)NNC(C)(C)C)c1,·,0.39
O=C1c2cccc3cccc(c23)C(=O)N1CC1CCN(CC(O)COCc2ccc(Cl)cc2)CC1 (stereo not given),·,9.6
O=C(N/N=C\c1ccco1)c1ccc(S(=O)(=O)N2CCCCCC2)cc1,-0.65,·
Cc1ccc(CSc2nnnn2-c2ccccc2)cc1,-0.45,·
COc1ccc2[nH]c3c(=O)n(CC(=O)N(C)Cc4ccccc4)c(=S)[nH]c3c2c1,0.9,-0.24

# Random excerpt: 6 entries already listed.
SMILES,AID504770,CapD inh
Cc1ccc(NC(=O)CSc2nnc(C)c3ccccc23)cc1,·,-0.22
O=C1c2cccc3cccc(c23)C(=O)N1CC1CCN(CC(O)COCc2ccc(Cl)cc2)CC1 (stereo not given),·,9.6
O=C(NC1CCN(Cc2ccccc2)CC1)C1CCC1,0.35,-0.085
CN(C(=O)COC(=O)Cn1cnc2ccccc2c1=O)c1ccccc1,0.15,·
CCOC(=O)c1c(C)n(C)c2ccc(OCC(O)CNC3CCCCC3)cc12 (stereo not given),-1,-0.78
CCOC(=O)c1ncoc1-c1cccc(C(F)(F)F)c1,·,-0.74

# (list continues)
SMILES,AID504770,CapD inh
O=C(c1cc(=O)c2ccccc2o1)N1CCN(S(=O)(=O)/C=C/c2ccccc2)CC1,2.6,·
O=S(=O)(Cc1ccccc1)Nn1cnnc1,-0.45,-0.36
Cc1ccc(-c2noc(-c3ccccc3C)n2)cc1,-0.7,-0.01
CCOC(=O)CNc1ncc(C(F)(F)F)cc1Cl,-1.4,-0.27
O=C(O)Cn1c(P(=O)(O)c2ccccc2)nc2ccccc21,-3.8,·
CCOc1ccc2nc(SCc3cc(=O)oc4cc(O)ccc34)[nH]c2c1,0.1,·
Cc1cc(C)n(CCC(=O)O)n1,-0.35,0.28
CCNC(=O)N1CCN(c2ncc(-c3ccc(Cl)cc3)cn2)CC1,·,2.1
NS(=O)(=O)c1ccc(CNC2=NCCCCC2)cc1,0,·
O=S(=O)(c1cc(Cl)ccc1Cl)N1CCCC1CO (stereo not given),·,-0.99
Cc1nc(SCC(=O)c2ccc(O)cc2O)n[nH]1,·,-2.2
CCOC(=O)C1=c2s/c(=C\c3ccc(Cl)cc3)c(=O)n2C(N)=C(C(=O)OC)C1c1ccc(Cl)cc1 (stereo not given),·,0.33
Cc1c(C(=O)N2CCN(c3ccc([N+](=O)[O-])cc3)CC2)sc2ncnc(N3CCC(C)CC3)c12,·,-2.1
O=C(c1ccc2c(c1)CCCC2)N1CCN(c2ccccc2)CC1,-1,1
CCCCOc1ccc(C(=O)NCC(=O)NC2CC2)cc1,-0.25,·
CN(C)/C=C1\SC(=O)N(c2ccccc2)C1=O,1.1,-6.4*
CN(C)C(=S)Nc1ccc2c(c1)OCCO2,-0.25,0.68
CCOC(=O)N(c1ccccc1)P1(=S)OCCC(C)O1 (stereo not given),·,-0.2
CC[C@]12C=CCN3CCC4(c5cc(Br)c(OC)cc5N(C)C4[C@@](O)(C(=O)OC)[C@@H]1OC(C)=O)C32 (stereo not given in full),-0.4,0.02
O=c1[nH]cc(N2CCN(Cc3ccccc3)CC2)c(=O)[nH]1,-1.4,1.4
N#Cc1ccc(-n2c(-c3ccccc3)nnc2-c2ccccc2)cc1C#N,0.75,32
Cc1c(C(=O)N(C)CCc2ccccn2)sc2ncnc(N3CCN(c4ccccc4)CC3)c12,·,-0.24
COc1cc(NC(=O)c2ccc3c(SCC(=O)O)c4c(nc3c2)CCCC4)cc(OC)c1OC,-0.35,-2.2
COc1cc(C2/C(=C(\O)c3ccc(C)cc3)C(=O)C(=O)N2c2nncs2)ccc1O (stereo not given),·,-0.73

# Looked up above:
# Value for Cc1c(C(=O)N(C)CCc2ccccn2)sc2ncnc(N3CCN(c4ccccc4)CC3)c12 under CapD inh: -0.24
# Value for O=C(c1ccc2c(c1)CCCC2)N1CCN(c2ccccc2)CC1 under AID504770: -1
# Value for CN(C)/C=C1\SC(=O)N(c2ccccc2)C1=O under AID504770: 1.1
# Value for CN(C)C(=S)Nc1ccc2c(c1)OCCO2 under AID504770: -0.25
# Value for Cc1c(C(=O)N2CCN(c3ccc([N+](=O)[O-])cc3)CC2)sc2ncnc(N3CCC(C)CC3)c12 under CapD inh: -2.1
# Value for CCCCOc1ccc(C(=O)NCC(=O)NC2CC2)cc1 under AID504770: -0.25

# (listing goes on)
SMILES,AID504770,CapD inh
COc1ccc(/C(C)=N/O)cc1CN1CCOCC1,·,-0.32
O=C(O)c1c2c(nc3ccccc13)CCN(CC(O)COc1ccccc1)C2 (stereo not given),·,-0.095
Cc1ccc(CNC(=O)CN(C)S(=O)(=O)c2cccs2)cc1,0.15,-3.2
Cc1nn(-c2ccccc2)nc1C(=O)NNC(=O)CCc1nc2ccccc2n1C,·,0.27
Cc1cccc(NC(=S)NC(=O)/C=C/c2ccco2)c1,-4.2,·
COc1ccc(Br)c(C(=O)Nc2c(C)nc3nc[nH]n3c2=O)c1,-0.3,0.33
O=C(NCC1CCCO1)c1ccc(CN2CCc3ccccc3C2)cc1 (stereo not given),-0.65,0.42
COc1ccc(N/C=C/C(=O)C(C)(C)C)cc1,-0.55,-1.4
CN(C)c1ccc(C(=O)NN2C(=O)C3C4C=CC(CC4)C3C2=O)cc1 (stereo not given),·,-0.86
CCNc1nc(SCC(=O)OC)nc(N(C)C)n1,-0.65,·
Fc1cccc(Cl)c1CN1CCOCC1,-0.9,-0.61
CCOC(=O)C1CN(C)CCC1=O (stereo not given),0,0.025
Cc1cc(C)cc(Nc2csc(/N=C/NO)n2)c1,-0.65,-0.025
O=C(CSc1n[nH]c(=O)n1C1Cc2ccccc2C1)Nc1ccccc1,2.2,1.1
Cc1ccc(S(=O)(=O)Nc2cc3c4c(n(S(=O)(=O)c5ccc(C)cc5)c3c3ccccc23)CCCC4)cc1,·,-0.24
N#CC(C#N)=Cc1ccc(OCc2ccsc2C#N)cc1,-0.9,1
CN(C(=O)c1nc(-c2cccc(F)c2)n2c1CCCCC2)c1ccccc1,1.9,-0.77
COc1ccc(S(=O)(=O)N2CCN(C(=O)N(C)C)C2c2ccccc2)cc1 (stereo not given),1.8,·
O=C(c1cc(C2CC2)on1)N1CCN(C(c2ccccc2)c2ccccc2)CC1,0.65,-0.32
CCCCN(CC)S(=O)(=O)c1cccc2cccnc12,1.8,-0.44
Cc1ccsc1C(=O)OCC(=O)N1CCc2ccccc21,-0.3,0.075
CC1=NN(c2cc(S(=O)(=O)O)c3cccc(S(=O)(=O)O)c3c2)C(=O)C1,·,-5.7*
CNc1nc(OC)nc(N2CCOCC2)n1,-0.65,0.43
CC(=O)N1N=C(c2ccc(N(C)C)cc2)CC1NC(Cc1c[nH]c2ccccc12)C(=O)O (stereo not given),-0.7,-0.53
Cc1c(OCc2c(Cl)cccc2Cl)c(=O)ccn1Cc1ccc(F)cc1,·,-0.57
CC(C)(C)C(=O)CSc1nc(N)c(C(=O)C(C)(C)C)s1,1.8,-0.72
CCn1nccc1C(=O)Nc1cc(Cl)ccc1Cl,-0.4,-0.39
O=S(=O)(c1cc(F)c(Br)cc1F)N1CCN(Cc2ccsc2)CC1,·,-0.12
O=C(CSc1nnc(CNC(=O)c2ccccc2)n1-c1ccccc1)c1ccccc1,-1,-0.98
Cc1c(C(=O)NC2Cc3ccccc3C2)cnn1-c1ccc(F)cc1,-0.6,-0.76
Cc1ccc(NCc2c(C)[nH]c3ccccc3c2=O)cc1C,-0.65,-0.56
C/C(N)=C(/C#N)C(=O)CSc1cc(Cl)ccc1Cl,1.6,·
Cc1cc(C)n2nc(SCC(=O)NCCC3=CCCCC3)nc2n1,-0.8,0.22
O=C(O)c1ccc2c(c1)N=C(Cl)c1ccccc1S2,0.4,·
COc1cccc(/C=C2/C(=O)NC(=O)N(c3cccc(Br)c3)C2=O)c1O,·,0.32
